HSV augment – increases HSV replication in cells; HSV replication augmentation in cells, fold increase; maximum fold increase; actives 0.005% (n = 220,000); AID 1956;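 active means peak rise of 1.5-fold or more in the series; tested in PC3 cells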;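 further: first round at 10 µM; read as green reporter fluorescence; hits show the peak of a series up to 25 µM; 1 = signal of infected wells without compound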
GALR2 ag – activates the human galanin receptor 2 | O43603 | GALR2-expressing cells, agonist activation read-out | activation, %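 (tested at 5 µM)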 | actives 0.48% (n = 140,000);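 active means above mean plus 3 SD of all compounds, about 5% in these data, not always enough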;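 further: 0% = vehicle buffer wells and 100% = reference agonist at full effect; tested in CHO reporter cells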
Target sequence (O43603 whole entry, looked up): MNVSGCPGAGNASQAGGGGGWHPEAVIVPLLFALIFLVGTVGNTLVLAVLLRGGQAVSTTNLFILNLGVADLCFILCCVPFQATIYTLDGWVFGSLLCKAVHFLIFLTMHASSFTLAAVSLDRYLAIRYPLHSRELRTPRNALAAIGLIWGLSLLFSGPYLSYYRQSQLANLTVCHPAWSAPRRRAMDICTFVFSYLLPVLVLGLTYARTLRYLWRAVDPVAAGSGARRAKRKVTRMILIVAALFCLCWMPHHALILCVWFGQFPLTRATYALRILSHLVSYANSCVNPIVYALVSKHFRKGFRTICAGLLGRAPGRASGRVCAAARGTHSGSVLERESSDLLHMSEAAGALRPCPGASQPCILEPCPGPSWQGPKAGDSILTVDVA
INS promoter inh – TRM-6 insulin promoter activity inhibition. TRM-6 cells (human fetal islet line), insulin promoter-eGFP reporter, imaging; reporter expression induced with tamoxifen. actives 0.9% (n = 130,000). inhibition, % at 2 µM;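 active means inhibition above the mean plus 3 SD, with well images judged a real hit on visual review, cut at about 60% in these data, passing the limit was not always enough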
RGS16-Gao HTS – modulates binding between human RGS16 and Galphao | O15492+P09471 | bead-based flow cytometry RGS16-Galphao binding, fluorescence; actives lie on both sides | binding response (% of control), % at 10 µM | actives 0.38% (n = 220,000);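 active means below 25% or above 175%, edge rows of some plates excepted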;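 further: Galphao activated by GDP with aluminum fluoride before binding; 100% = wells without compound and 0% = beads without RGS; some results beyond the cut were filed as inactive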
Target sequence (O15492 whole entry, looked up): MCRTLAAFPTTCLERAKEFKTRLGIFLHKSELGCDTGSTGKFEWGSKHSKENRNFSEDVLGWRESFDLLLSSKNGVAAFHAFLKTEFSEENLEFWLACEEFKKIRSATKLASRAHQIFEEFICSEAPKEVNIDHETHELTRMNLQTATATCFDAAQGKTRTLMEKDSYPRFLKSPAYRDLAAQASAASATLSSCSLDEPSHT
Target sequence (P09471 whole entry, looked up): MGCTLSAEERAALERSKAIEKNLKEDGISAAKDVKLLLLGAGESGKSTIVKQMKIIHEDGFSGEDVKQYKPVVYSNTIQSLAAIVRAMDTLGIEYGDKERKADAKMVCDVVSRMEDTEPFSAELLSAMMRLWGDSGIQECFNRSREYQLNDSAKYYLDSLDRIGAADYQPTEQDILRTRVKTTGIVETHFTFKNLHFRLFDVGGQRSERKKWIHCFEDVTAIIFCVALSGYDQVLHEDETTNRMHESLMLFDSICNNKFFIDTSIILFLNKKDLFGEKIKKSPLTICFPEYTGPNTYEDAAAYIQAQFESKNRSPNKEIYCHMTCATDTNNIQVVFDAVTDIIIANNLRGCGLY
PKD1 kinase inh – inhibitors of human PKD1 kinase. AID 797. actives 0.056% (n = 200,000). PKD1 kinase fluorescence polarization assay. inhibition, %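 (about 10 µM by stock and volumes)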;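 active means inhibition of 50% or more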;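 further: controls were vehicle for no effect and a reference inhibitor for full effect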
INS promoter inh cell count – further read-out of INS promoter inh, marked with its call; normalized cell count, %; measured here: cell count, toxicity; reference of the scale not given here;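 cells exposed to compound for 48 h; stained nuclei by imaging scaled within each plate; lower means fewer cells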
HSV augment primary fold – second read-out of HSV augment, no call of its own (marks repeat the call); fold increase; compound at 10 µM; measured here: primary screen fold increase 10 uM; tested in PC3 cells;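 GFP signal in the first replicate; 1 = infected wells without compound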
* = called active by the depositor; i = inactive; . = not tested or not shown.

SMILES | HSV augment | HSV augment primary fold | GALR2 ag | INS promoter inh | INS promoter inh cell count | RGS16-Gao HTS | PKD1 kinase inh
COC(=O)c1ccc(C2NC(=S)N(c3ccccc3)C(C)=C2C(=O)Nc2ccccc2OC)cc1 (stereo unspecified) | i | 0.81 | -3.5 | -16.2 | 68.9 | 101.1 | -3.4
CC(=O)Nc1cccc(NC(=O)COc2nncc3ccccc23)c1 | i | 0.97 | 0.3 | 40.0 | 85.1 | 81.4 | 6.9
O=C(NC12CC3CC(CC(C3)C1)C2)c1ccc(-c2ccc(Br)cc2)o1 | i | 1.1 | 0.7 | -10.2 | 127.7 | 103.0 | 8.9
CCOc1ccc(Nc2cc(Nc3ccccc3OCC)nc(C=C(C#N)C#N)n2)cc1 | i | 0.91 | . | . | . | 98.6 | .
CCOC(=O)C(NC(=O)NCc1ccccc1)(OCC)C(F)(F)F (stereo unspecified) | i | 0.78 | 0.5 | 40.0 | 156.0 | 102.3 | -4.1
O=C(NCCS(=O)c1ccc(Cl)cc1)c1cccc(Cl)c1 (stereo unspecified) | i | 0.95 | . | -150.0 | 79.9 | 96.2 | -5.8
CC(C)(/C=N/O)/[N+]([O-])=C/c1ccccc1 | i | 1.09 | . | . | . | 101.0 | .
O=C(Nc1ccc(CSc2ccccc2)cc1)c1ccccc1 | i | 1.17 | . | . | . | 97.5 | -4.2
N#Cc1ccc2ccn(CC(=O)NCc3ccco3)c2c1 | i | 1.03 | -1.6 | -14.3 | 90.4 | 97.0 | -3.8
O=C(Nc1ccccn1)C1COc2ccccc2O1 (stereo unspecified) | i | 0.8 | -1.9 | -122.9 | 95.8 | 99.9 | -2.1
O=C(CSc1nnc(-c2ccccc2)n1C1CCCCC1)N1CCCC1 | i | 0.83 | -1.0 | -55.9 | 135.4 | 105.8 | -4.1
O=C(c1cnn2ccccc12)N(Cc1ccco1)C1CCCC1 | i | 0.98 | -1.3 | . | . | 97.7 | -9.9
O=C(C1=C[C@H](c2ccccc2)C[C@H](OCCCCO)O1)N1CCN(Cc2ccc3c(c2)OCO3)CC1 | . | . | . | . | . | 115.5 | 4.1
Clc1ccc(CSc2nnc(-c3ccncc3)s2)cc1 | i | 1.16 | . | . | . | 87.5 | .
CCCOc1cccc(C(=O)NC(=S)Nc2ccc(N3CCN(C)CC3)cc2)c1 | i | 0.77 | . | . | . | 93.4 | 7.4
O=C(Nc1cccc2ncccc12)c1ccc(-c2ccc(Cl)cc2Cl)o1 | i | 1.13 | -3.3 | 16.7 | 84.2 | 105.2 | -8.0
Cc1ccccc1N(C(=O)Cc1cccs1)C(C(=O)NC1CCCCC1)c1cn(C)nc1C (stereo unspecified) | i | 1.04 | -0.3 | . | . | 102.2 | 2.8
COc1ccc(Cl)cc1NC(=S)NNC(=O)c1cccs1 | i | 1.06 | . | . | . | 107.5 | -3.7
CC(C)n1c(N2CCN(C(=O)Nc3ccc(F)cc3F)CC2)nc2ccccc21 | i | 0.88 | -1.0 | 20.0 | 57.3 | 117.8 | 4.9
CCOC(=O)c1cnc2ccc(C(=O)OC)cc2c1NCCN1CCOCC1 | i | 0.96 | -1.3 | . | . | 110.6 | 6.8

Structures above that have a thiophene ring, fused or not, in the order listed:
SMILES | HSV augment | HSV augment primary fold | GALR2 ag | INS promoter inh | INS promoter inh cell count | RGS16-Gao HTS | PKD1 kinase inh
Cc1ccccc1N(C(=O)Cc1cccs1)C(C(=O)NC1CCCCC1)c1cn(C)nc1C (stereo unspecified) | i | 1.04 | -0.3 | . | . | 102.2 | 2.8
COc1ccc(Cl)cc1NC(=S)NNC(=O)c1cccs1 | i | 1.06 | . | . | . | 107.5 | -3.7

Returning to the listing, starting three compounds before the break.
SMILES | HSV augment | HSV augment primary fold | GALR2 ag | INS promoter inh | INS promoter inh cell count | RGS16-Gao HTS | PKD1 kinase inh
COc1ccc(Cl)cc1NC(=S)NNC(=O)c1cccs1 | i | 1.06 | . | . | . | 107.5 | -3.7
CC(C)n1c(N2CCN(C(=O)Nc3ccc(F)cc3F)CC2)nc2ccccc21 | i | 0.88 | -1.0 | 20.0 | 57.3 | 117.8 | 4.9
CCOC(=O)c1cnc2ccc(C(=O)OC)cc2c1NCCN1CCOCC1 | i | 0.96 | -1.3 | . | . | 110.6 | 6.8
Cc1sc2nc(C(C)(C)C)oc(=O)c2c1C | i | 0.88 | -1.0 | 11.5 | 101.0 | 99.9 | 0.8
CCOC(=O)N1CCC(Nc2c(Nc3cccc(CC)c3)c(=O)c2=O)CC1 | i | 1.04 | -1.1 | . | . | 96.4 | 8.5
CC(C(=O)N1CCN(C2c3ccccc3-c3ccccc32)CC1)N1C(=O)c2ccccc2C1=O (stereo unspecified) | i | 1.03 | -0.5 | 0.0 | 122.8 | 100.0 | 4.7
CCNC(=O)CC1S/C(=N/N=C(\C)c2ccccc2)NC1=O (stereo unspecified) | i | 0.98 | . | . | . | 101.6 | 0.1
O=C(NC1CC1)c1ccc(-n2cccc2)cc1 | i | 0.65 | . | . | . | 100.3 | -5.3
COc1cccc(/C=N/Nc2cc(-n3nc(C)cc3-c3ccccc3)ncn2)c1O | i | 0.77 | -0.3 | -18.5 | 107.3 | 97.1 | -11.9
c1ccc(CN2CCC(N=C3NN=C(c4ccc5c(c4)OCCO5)CS3)CC2)cc1 | i | 0.73 | . | . | . | 96.9 | 9.7
CCC(=O)NC(=S)NNC(=O)c1ccc([N+](=O)[O-])cc1 | i | 0.87 | -1.6 | 37.5 | 70.2 | 90.7 | -9.2
Cc1cc(C)cc(NC(=O)CN(C)S(=O)(=O)c2cccc3nsnc23)c1 | i | 0.98 | 0.4 | -11.8 | 115.7 | 106.8 | 1.4
CCn1c(C2CC(=O)N(c3ccc(C)c(C)c3)C2)nc2ccccc21 (stereo unspecified) | i | 0.96 | -1.2 | . | . | . | -3.7
NC(=O)c1cc[n+](CC2=C(C(=O)O)N3C(=O)[C@@H](NC(=O)C(c4ccccc4)S(=O)(=O)[O-])[C@H]3SC2)cc1 (stereo partly specified) | i | 0.91 | -0.6 | -76.2 | 138.5 | 102.8 | -8.4
CCc1nc(NCCCN2CCOCC2)c2oc3ccccc3c2n1 | i | 0.91 | -3.0 | 61.1 | 92.2 | 101.0 | -3.1
CCCCCOc1ccc(C(=O)NCC2(c3ccccc3)CCOCC2)cc1 | i | 1.03 | -3.2 | -13.3 | 100.0 | 73.9 | -2.0
CC(C)(C)NC(=O)c1ccnc(C(C)(C)C)c1 | i | 1.11 | -3.1 | . | . | 104.2 | -2.9
CC12CN(Cc3ccccc3)CC(C)(CN(Cc3ccccc3)C1)C2=NO | i | 1 | -2.7 | -3.2 | 52.1 | 103.2 | -7.7
O=C(Cn1cnc([N+](=O)[O-])n1)N/N=C/c1ccc(O)cc1O | i | 0.92 | . | . | . | 75.8 | 3.6
CCOC(=O)N1CCN(C(=O)COc2ccccc2[N+](=O)[O-])CC1 | i | 0.97 | . | . | . | 95.9 | 1.0
Cn1c(-c2cccc([N+](=O)[O-])c2)[n+](C)c2ccccc21 | i | 0.88 | . | . | . | 102.5 | 4.4
CC(C)(C)n1nnnc1CN1CCN(C(c2ccccc2)c2ccccc2)CC1 | . | . | -0.6 | 6.7 | 122.0 | 104.4 | -3.3
CCn1ccnc1CN1CCCC(C(=O)c2ccc3c4c(cccc24)CC3)C1 (stereo unspecified) | i | 1.16 | . | . | . | 104.8 | -1.8
COc1cc(S(=O)(=O)NCc2cccnc2)ccc1F | i | 0.87 | -0.1 | 8.7 | 103.2 | 107.0 | -3.1
O=C(CCn1c(=O)oc2ccccc21)Nc1ccon1 | i | 0.89 | -0.3 | 28.6 | 129.3 | 106.3 | -2.8
CC(C)(C)C(=O)Nc1sc(-c2ccccc2)cc1C(=O)O | i | 0.92 | . | . | . | 100.6 | .
CCOc1cc(/C=C/c2cc(C(=O)O)c3ccccc3n2)ccc1OC | i | 0.93 | -0.6 | 21.4 | 122.2 | 113.0 | -2.8
COc1cc(N=Nc2c(O)c3ccccc3[nH]c2=O)c(OC)cc1N=Nc1ccccc1 | i | 0.98 | . | . | . | 96.4 | .
N=c1c2c(n(Cc3ccc(Cl)cc3)c3c1CCC3)CCC2 | i | 0.82 | -0.8 | 31.0 | 61.7 | 101.6 | -7.7
CCC(=O)Nc1nc(C)c(-c2csc(Nc3ccc(S(=O)(=O)Nc4cc(C)on4)cc3)n2)s1 | i | 0.76 | -1.4 | 20.0 | 130.2 | 110.7 | -1.3
COC(=O)c1ccc(N(CC(=O)NC2CCCC2)C(=O)CNC(=O)c2ccco2)cc1 | i | 0.953 | -0.2 | . | . | 106.9 | -3.1
CN(C1CCCCC1)S(=O)(=O)c1ccc(S(=O)(=O)N(CC(=O)Nc2ccccc2)C2CC2)cc1 | i | 0.93 | . | . | . | 103.2 | .
O=C(CCc1nnc(CCCCc2ccccc2)o1)N(CCO)Cc1ccccc1 | i | 1.02 | . | . | . | 109.2 | -6.3
CCN(CC)C(=O)Oc1cc(=O)n(C)c2ccccc12 | i | 0.99 | 1.3 | 30.8 | 120.6 | 104.5 | -8.6
CCOc1cccc(Nc2cc3n(c(=O)n2)CCc2cc(OC)c(OC)cc2-3)c1 | i | 0.76 | -0.2 | -12.9 | 91.9 | 98.4 | -8.1
C=C1CCN([C@@H](C)C(=O)NCc2cc(OC)c(OC)c(OC)c2)S(=O)(=O)c2ccccc21 | i | 0.955 | . | . | . | 98.4 | .
CCCS(=O)(=O)N1CCC(C(=O)NCCCOC(C)C)CC1 | i | 0.91 | -2.7 | . | . | 105.1 | -0.9
CC(Nc1nc(N2CCCC2)nc2ccccc12)c1ccccc1 (stereo unspecified) | i | 0.57 | -2.0 | 0.0 | 105.3 | 99.2 | -13.6
Cc1sc2ncnc(N(C)Cc3cccs3)c2c1C | i | 0.97 | -1.4 | 46.4 | 124.0 | 114.2 | -2.3
O=c1c2ccccc2nc(-c2ccco2)n1CCCn1ccnc1 | i | 0.92 | 0.4 | -72.7 | 171.4 | 104.2 | 8.5
COC(=O)c1nc(Cl)c(Cl)c(N)c1Cl | i | 0.98 | . | . | . | 100.2 | 3.4
COc1ccc(CNC(=O)C(c2ccco2)N(C(=O)CNS(=O)(=O)c2ccccc2)c2ccccc2C)cc1 (stereo unspecified) | i | 0.96 | -1.2 | -25.0 | 82.6 | 110.8 | 0.3
COC(=O)N/N=C/c1cc(Br)ccc1O | i | 1.45 | . | . | . | 100.7 | 3.7
C=CCn1c(O)c(C(CC)=Nc2ccccc2NC(=O)CC)c(=O)[nH]c1=O | i | 1.01 | -0.5 | -21.4 | 65.6 | 70.0 | 0.2
CCSc1ccccc1C(=O)NCCc1ccccc1 | i | 0.71 | . | . | . | 97.5 | -4.3
Nc1ccc(Oc2ccc(Br)cc2)cc1 | i | 0.93 | -0.5 | -25.8 | 117.7 | 114.5 | -3.8
CCNc1nc(N)c(C(=O)c2ccc(Cl)s2)s1 | i | 0.91 | -3.8 | 20.0 | 74.2 | 103.2 | -7.1
CCOc1cccc(-c2cc(-c3n[nH]c(=S)n3CC)c3ccccc3n2)c1 | i | 0.8 | -1.0 | . | . | 92.6 | -12.1
Cc1cc(C)c2c(c1)NC(=O)C2(O)CC(=O)c1cccs1 (stereo unspecified) | i | 0.79 | -1.9 | -314.3 | 25.4 | 116.2 | -3.1
COc1ccc(C(=O)NCc2nnc(SCC(=O)N3CCC(C)CC3)o2)cc1OC | i | 1.03 | -2.0 | -8.5 | 109.6 | 93.4 | -11.8
CCNC(=S)NNc1nc(N2CCOCC2)nc(N2CCOCC2)n1 | i | 0.98 | . | 22.2 | 105.4 | 158.5 | 2.0
S=C(c1ccc2c(c1)OCO2)N1CCCCC1 | i | 1.02 | -2.3 | 6.5 | 105.5 | 105.3 | -5.4
Cc1ccc(C(=O)Nc2ccc(SC(F)F)cc2)s1 | i | 0.84 | . | . | . | 100.5 | 1.5
Cn1c(=O)n(C)c2cc(/C=N/NC(=O)c3ccc(Cl)cc3)ccc21 | i | 0.97 | . | . | . | 102.1 | .
CCOC(=O)N1CCN(C(=O)/C(=C/c2ccccc2OC)NC(=O)c2ccccc2)CC1 | i | 0.88 | -2.8 | -7.4 | 98.0 | 100.3 | -5.6
c1ccc(Sc2ncccn2)nc1 | i | 0.87 | . | . | . | 135.6 | .
CCN1CCCC1CNC(=O)c1cn(CC)c2ccc(S(=O)(=O)N3CCCCCC3)cc2c1=O (stereo unspecified) | . | . | -0.2 | . | . | 102.9 | -7.7
Cc1ccc(NC2=CC(=O)C(=O)c3ccccc32)cc1 | i | 0.63 | -2.5 | -24.3 | 78.7 | 96.1 | -4.4
O=C(CSCc1c(Cl)cccc1Cl)NCc1cccnc1 | i | 1.25 | -2.7 | -32.1 | 109.6 | 87.0 | -3.8

Source: PubChem (several laboratories)

Not a hit list; 1.2% or so of the library scored in one or more.
